# Screening results (PubChem)
# TRPV1 PAM: enhances activation of the human vanilloid receptor TRPV1; Q8NER1; hit rate 0.02% among 320,000; potentiation, % at 8.33 µM; TRPV1-expressing cells, Fluo-8 calcium influx, capsaicin EC20 potentiation; host cell line not named in the record; control for the full effect not named in the record; active means potentiation above 80%; inconclusive means 30% to 80%; inactive means below 30%; further: 0% is about no effect
#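 Fluo-8 calcium influx in TRPV1-expressing cells, kinetic read (ex 480/em 520 nm). Compound added and read 3 min for agonist activity, followed by capsaicin at EC20 final and 2 min further read for enhancement.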
# gsp antagonist: gsp mutant antagonism; hit rate 0.4% among 340,000; gsp-mutant cells, cAMP HTRF, 30 min; control for the full effect not named in the record; Potency, µM (top dose mostly 76.9 µM), for inactives: top-dose activity change, negative = inhibition, usual class: inhibitors; AID 624288; active = falling curve of any shape with a large fitted effect; inconclusive = falling curve, mostly with a smaller effect; inactive = flat or rising curve; cell line not stated here;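 further: intracellular cAMP measured with PDE inhibitor Ro 20-1724 present during compound exposure; potency means the concentration at half of the fitted maximal effect; on the % scale 0 is the no-effect control and ±100 the full control effect; nearly all actives have a fitted effect of over 65% in size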
#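 Cells, 2000/well, grown 16–24 h in DMEM 10% FBS with 0.5 mg/ml G418, then compounds plus […] (300 uM addition stock), 30 min at 37C. cAMP read by HTRF (cAMP-d2 and anti-cAMP antibody-K in lysis buffer) after 30 min RT.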
# ClpP mod: qHTS Assay for Activators of ClpP. ATP-dependent Clp protease proteolytic subunit (Bacillus subtilis (strain 168)), P80244. purified B. subtilis ClpP, FRET peptide cleavage, 20 min. Potency, µM (series often up to 57.5 µM), for the others: at the highest dose activity change, negative = active. hit rate 1.9% among 340,000. AID 651965, 2013; active = well fitted falling curve with a large enough effect; inconclusive = small, poorly fitted or top-dose-only effect; inactive = no such curve, though single readings can be large or run the other way; further: potency means the concentration at half of the fitted maximal effect; the source files actives as falling curves though it sought activators and does not explain the sign; nearly all actives have a fitted effect of over 65% in size; many hits overshoot -100%
# Target sequence (P80244 whole entry, looked up): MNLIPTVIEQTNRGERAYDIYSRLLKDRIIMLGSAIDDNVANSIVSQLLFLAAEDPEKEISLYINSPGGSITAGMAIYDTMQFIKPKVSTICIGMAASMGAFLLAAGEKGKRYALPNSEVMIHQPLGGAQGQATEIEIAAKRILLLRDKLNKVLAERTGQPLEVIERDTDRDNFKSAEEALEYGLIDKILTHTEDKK
#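 FRET quenching reversal measured ClpP activation: 10 microg/mL B. subtilis ClpP at pH 8 with the FRET-FV decapeptide, read at 430 nm after 320 nm excitation. The 20-min minus 0-min signal was scaled between DMSO/no-enzyme wells and ADEP (5.8 microM final).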
# D2 PAM: human D2 receptor positive allosteric modulation; AID 624464; P14416; DiscoveRx D2 beta-arrestin cells, luminescence, 90 min; 100% = 57 uM dopamine signal; potentiation, % (test concentration not listed); hit rate 0.23% among 360,000; active = potentiation of 50% or more; inconclusive = 30% to 50%; inactive = 30% or less;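 further: compound concentration not given in the record; tested on top of an EC20 dose of dopamine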
# Target sequence (P14416 whole entry, looked up): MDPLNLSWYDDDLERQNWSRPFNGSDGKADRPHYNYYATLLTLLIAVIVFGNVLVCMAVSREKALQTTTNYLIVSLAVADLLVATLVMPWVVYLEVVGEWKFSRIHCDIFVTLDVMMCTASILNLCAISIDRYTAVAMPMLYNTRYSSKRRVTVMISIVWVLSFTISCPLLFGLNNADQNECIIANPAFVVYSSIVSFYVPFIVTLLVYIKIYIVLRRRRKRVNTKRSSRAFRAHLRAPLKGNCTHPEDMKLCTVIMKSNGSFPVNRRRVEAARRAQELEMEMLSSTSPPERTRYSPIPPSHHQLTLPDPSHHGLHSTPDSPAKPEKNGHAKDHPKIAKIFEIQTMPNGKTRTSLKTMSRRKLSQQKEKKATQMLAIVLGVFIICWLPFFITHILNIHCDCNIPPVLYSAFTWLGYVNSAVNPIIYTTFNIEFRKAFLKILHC
#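 PathHunter D2 cells, attached overnight at 37 deg C, received compound in DMSO plus dopamine at EC20 (50 nM final) for 90 min at 37 deg C. Beta-arrestin recruitment was read as luminescence after 1 h with detection reagent at ambient temperature.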
# Sfp inh: inhibitors of Bacillus subtilis Sfp phosphopantetheinyl transferase; hit rate 3.5% among 310,000; Q9F4F7; Biochemical Sfp PPTase activity, qHTS; Potency, µM, for inactives: max response, negative = inhibition, actives largely listed as inhibitors; active means well fitted inhibition curve with a large enough effect; inconclusive means small, poorly fitted or top-dose-only effect, or another doubt; inactive means no such curve, though single readings can be large or run the other way;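 further: the enzyme is Sfp with the accession as filed and its product quenches rhodamine fluorescence; potency means the concentration at half of the fitted maximal effect; 0% = enzyme reaction without inhibitor and -100% = no enzyme wells; top concentration of the series not given in the record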
#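 Buffer: 50 mM Hepes-Na pH 7.6, 10 mM MgCl2, 0.01% Nonidet P-40, 0.01% BSA. Enzyme 15 nM, pre-exposed to compound 15 min; substrates then added and fluorescence change tracked over 30 min.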
# Menin MLL FP FL: menin-MLL binding inhibition, fluorescein peptide | Fluorescence polarization, fluorescein-MLL peptide displacement from menin | FP activity change, % at 61.4 µM | 290,000 tested, under 10 active; inconclusive = falling polarisation curve, or a change in total fluorescence; inactive = total fluorescence flat and polarisation flat or rising; no compound was filed as active; the % refers to the polarisation; negative = inhibition;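 further: % of control where 0% means no effect; inhibitors lower the polarisation; unlabelled MLL peptide was the positive control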
# gsp agonist: agonists of gsp mutant (McCune-Albright syndrome) | gsp mutant cells, cAMP HTRF, 30 min; control for the full effect not named in the record | Potency, µM (doses to about 76.9 µM), for inactives: at the highest dose activation (cAMP increase), actives largely listed as activators | hit rate 0.13% among 340,000; active = well fitted activation curve with a large enough effect; inconclusive = small, poorly fitted or top-dose-only effect, or another doubt; inactive = no such curve, though single readings can be large or run the other way; cell line not stated here;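 further: phosphodiesterase inhibitor Ro 20-1724 added with compounds to block cAMP breakdown; potency means the concentration at half of the fitted maximal effect; nearly all actives have a fitted effect of over 60% in size; about a fifth of the inactives were tested at one dose only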
#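 Cells stably selected in G418 were plated at 2000/well, grown 16-24 hr, then given compounds in DMSO with the PDE inhibitor […] (300 uM solution added) for 30 min at 37C; cAMP was read by HTRF.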
# An asterisk follows results filed as active; u = inconclusive; x = not tested or not shown; [ ] = another dose, or the depositor's remark. The order is random; 5.1% or so of the library scored in one or more.
SMILES,TRPV1 PAM,gsp antagonist,ClpP mod,D2 PAM,Sfp inh,Menin MLL FP FL,gsp agonist
CCN1CCN(C(c2cccc(OC)c2OC)c2nnnn2Cc2ccco2)CC1 (stereo not given),5,18%,x,-11,13%,0.5,25%[15.4 µM]
COc1cc2c(cc1OC)CN(C(=O)CSc1nnc(C)s1)CC2,28,-5%,-3.2%,-6,-13%,1.0,0%[15.4 µM]
COc1ccc(OCC(NS(=O)(=O)c2ccc(-n3cnnn3)cc2)C(C)C)cc1 (stereo not given),-2,-10%,-0.2%,-13,1%,x,26%
Cn1c2ccccc2c(=O)c2c(O)cccc21,7,2%,x,-4,2%,0.0,22%
Cc1ccc(S(=O)(=O)NCC(NCc2ccc(F)cc2)c2ccccc2)cc1 (stereo not given),9,-17%,4.7%,-23,x,x,u
CN1CC(=O)N(CC(=O)Nc2cc(Cl)cc(Cl)c2)C1=O,6,1%,-0.3%,-4,11%,3.1,2%
CCOc1ccc(Nc2ccc3nonc3c2[N+](=O)[O-])cc1,-1,-7%,-11%,-8,8%,-3.4,7%[15.4 µM]
Cc1cc(=O)[nH]c(SCC(=O)Nc2ccnc3ccccc23)n1,3,-46%,x,0,-4%,15,18%[15.4 µM]
Cc1ccc(NC(=O)C2CC(=O)N(Cc3ccccc3)C2)cc1S(=O)(=O)N1CCCCCC1 (stereo not given),0,-19%,-3.2%,9,4%,1.8,-23%
CCN1CCC(NC(=O)Nc2cccc(C(F)(F)F)c2)CC1,7,12%,x,-22,16%,u,-18%[15.4 µM]
COCCNC(=O)CCc1c(C)nc2c(c(C)nn2-c2ccc(C)c(C)c2)c1C,-14,14%,4.3%,-8,1%,-6.4,-6%
CCCn1c(N)c(C(=O)CSc2nc(C)cs2)c(=O)[nH]c1=O,-6,-7%,-1.3%,-5,18%,0.7,27%
COc1ccc(OCCCC(=O)ON=C(N)c2ccccc2C)cc1,20,-4%,2.8%,5,x,x,7%
COc1ccc2c(c1OC)CCC2=O,2,2%,28µM*,-8,6%,-0.8,14%
C=CCn1c(SCn2nnc3ccccc3c2=O)nnc1-c1ccc(F)cc1,-2,-4%,1.0%,-1,9%,1.9,-22%
CCc1ccccc1NC(=O)Nc1ccc(F)cc1F,1,2%,x,-9,15%,-3.7,3%
Cc1cc(N2C(=O)C(O)=C(C(=O)c3ccco3)C2c2cccc(Oc3ccccc3)c2)no1 (stereo not given),-13,u,x,-7,-19%,x,14%[15.4 µM]
CC1=C/C(=N\N=C2\NC(=O)C(CC(=O)Nc3ccccc3)S2)CC(C)(C)C1 (stereo not given),5,-23%,0.7%,-6,7%,1.9,3%
Cc1ccc(NC(=O)Cn2cc([N+](=O)[O-])nc2C)cc1C,-1,15%,0.7%,-2,-8%,-4.5,13%
CCC(c1nnnn1C(C)(C)CC)N(CCCO)Cc1cc2cccc(C)c2[nH]c1=O (stereo not given),-13,-13%[15.4 µM],-2.1%,12,-26%,1.9,-1%
O=C(CCCn1nnnc1CN1CCOCC1)N1CCC(c2ccc(F)cc2)C1 (stereo not given),9,-5%,1.2%,-25,13%,x,u
OCC1(Cc2ccccc2)CCCN(Cc2ccc(-c3ccco3)cc2)C1 (stereo not given),-5,12%,-28%,-29,-13%,16,18%
OCCN1CCN(CC(O)COc2ccc(Cl)cc2)CC1 (stereo not given),6,-4%,-3.0%,-7,8%,1.2,u
NS(=O)(=O)c1ccc(CNC(=O)c2ccc(Cl)cc2[N+](=O)[O-])cc1,-2,13%,0.1%,17,14%,-1.5,u
NC(=O)c1ccc(N2CCN(S(=O)(=O)c3cccs3)CC2)c([N+](=O)[O-])c1,x,u,-1.1%,-5,x,x,18%
COc1cnn(-c2ccccc2)c(=O)c1N(C)C,-6,7%,-0.9%,4,-3%,0.8,-8%
O=C(CCc1ccccc1)NCCCN1CCOCC1,-7,10%,-1.9%,5,-16%,5.9,7%
COc1ccc(Cn2c(C)nc([N+](=O)[O-])c2SCC(=O)O)cc1[N+](=O)[O-],14,-11%,x,-10,2%,1.0,-2%[15.4 µM]
COc1ccc(NC(=S)NNC(=O)c2cccnc2)cc1OC,-10,10%,x,-6,-9%,-2.0,-18%
Cc1c(Cl)c([N+](=O)[O-])nn1CC(=O)NCCCN1CCOCC1,-3,8%,x,-6,1%,-2.0,4%[15.4 µM]
Cc1nc(-c2ccc(F)cc2)c(CC(=O)N2CCN(S(=O)(=O)c3cccc(F)c3)CC2)s1,-17,-28%,1.4%,-28,x,x,5%
COc1ccccc1C(=O)Nn1c(C)nc2ccccc2c1=O,3,-7%,0.1%,-8,8%,2.6,21%[15.4 µM]
Cc1cc(C(=O)COC(=O)c2ccc(O)cc2)c(C)n1Cc1ccco1,4,-9%,1.3%,8,-22%,2.1,-3%
CC(C)(C)C(=O)OC/C(N)=N/OC(=O)c1ccc(Cl)c(Cl)c1,-4,-1%,1.5%,8,6%,2.4,-7%
CCOc1ccccc1Nc1ncnc2ccccc12,-6,3%,-2.8%,5,15%,5.9,-48%[inhibitor]
O=c1[nH][nH]cc1C=Nc1ccccc1O,15,7%,2.0%,18,12%,4.8,6%
COc1c(F)c(F)c(C(=O)O)c(Nc2ccccc2)c1F,0,1%,1.4%,-1,16%,6.6,8%
O=C(CS(=O)(=O)Cc1ccccc1)Nc1cccnc1,2,5%,1.3%,-10,13%,-0.9,-52%[inhibitor]
COc1ccc(NC(=O)Nc2nnc(-c3ccccc3F)s2)cc1,-5,6%,x,-3,13%,-4.2,-11%
Cc1csc(NC(=O)c2cccn2C)n1,11,1%,-1.0%,-7,16%,0.9,15%
O=C(COC(=O)C1COc2ccccc2O1)NC1CCS(=O)(=O)C1 (stereo not given),-1,-11%,-0.4%,-25,14%,-0.6,7%
CCOc1ccc(NC(=O)C/C(C)=N/NC(=O)Cc2ccc(Cl)cc2)cc1,1,-4%,-0.8%,-11,4%,x,-49%[inhibitor]
N#Cc1ccc(OCC(=O)Nc2ccc3[nH]c(=O)[nH]c3c2)cc1,-4,11%,x,7,x,x,-9%[15.4 µM]
COc1ccc(NC(C)=O)cc1S(=O)(=O)Nc1ccc2c(c1)OCCO2,-13,-13%,x,-5,13%,-0.9,-3%[15.4 µM]
Cc1nn(Cc2ccc(C(=O)NN)cc2)c(C)c1Cl,-13,3%,x,-3,14%,-12,4%
CCNc1nc(NCC)nc(OCCOC(=O)Nc2ccccc2)n1,14,-3%,0.3%,0,12%,2.7,-12%[15.4 µM]
COc1ccc(S(=O)(=O)N2CCC(C(=O)NCc3ccncc3)CC2)cc1Cl,-12,9%,x,-5,14%,-1.5,1%
CCC(Cc1ccccc1)NC(=O)C1=C(C)C(=O)OC12CCC(C)CC2 (stereo not given),-13,-8%,x,-5,7%,-7.8,-4%
O=C(O)c1ccccc1C(=O)NCc1cccnc1,4,4%,-3.7%,2,6%,3.9,-27%
Cc1nn(Cc2ccccc2)c2c1C(c1ccncc1)C(C#N)=C(N)O2 (stereo not given),1,7%,1.4%,-15,-13%,3.5,-1%
Cc1nc(C(=O)O)cc2c1[nH]c1ccccc12,7,5%,4.8%,-13,x,x,x
CCCc1nc2sc3c(c2c(=O)n1N)CCC3,2,1%,-0.9%,-11,2%,0.1,-1%
CCOc1ccc(OCC(=O)OC(C)C(=O)NC2CCCC2)cc1 (stereo not given),x,-2%,0.4%,1,x,x,12%
COc1ccc(C2c3ccc4ccccc4c3Oc3ncn(CCN(C)C)c(=N)c32)cc1 (stereo not given),-4,5%,x,-13,-3%,3.5,7%
Cc1ccc(C(=O)Nc2ccc(S(=O)(=O)N3CCN(C)CC3)cc2)o1,-4,2%,0.6%,-5,18%,-1.8,0%
CN(C(=O)Nc1cnc2ccccc2c1)c1ccccc1,0,8%,x,-5,3%,-6.5,14%[15.4 µM]
O=C(Nc1ccccc1)c1cccc(=O)o1,-5,0%,x,-3,19%,0.7,-3%[15.4 µM]
O=C1CSC(=O)N1CC(O)COc1ccc(Cl)cc1 (stereo not given),-10,3%,1.7%,-11,8%,0.8,-7%
Cc1nc(C)c(-c2csc(N)n2)s1,0,11%,0.5%,-13,21%,-0.6,3%[15.4 µM]
CCOC(=O)CN(C(=O)COc1nc(-c2ccccc2)cc(C)c1C#N)c1ccc(C)cc1,5,-6%,4.2%,1,4%,-4.2,-3%

# (further entries)
SMILES,TRPV1 PAM,gsp antagonist,ClpP mod,D2 PAM,Sfp inh,Menin MLL FP FL,gsp agonist
c1ccc(CCn2nnc3ccccc32)cc1,x,21%,-1.4%,2,0%,5.0,-30%[inhibitor]
COC(=O)c1c(C(=O)OC)c(C)n(Cc2cccnc2)c1C,-4,-9%,0.5%,-9,10%,2.0,-19%
COc1ccc(NC(=O)CN2CCN(S(=O)(=O)N(C)C)CC2)cc1,-4,-9%,-1.8%,-2,17%,0.2,25%
COc1ccc(NC(=O)Nc2sc(NS(=O)(=O)c3ccccc3)nc2C)cc1,0,-2%,x,0,45µM*,0.3,0%
CN(C)S(=O)(=O)c1ccc(Cl)c(NC(=O)COC(=O)CN2C(=O)NC(C)(C)C2=O)c1,2,6%,-1.3%,-4,4%,-2.6,-8%[15.4 µM]
COc1ccc(NC(=O)C(OC(=O)c2cnc(C)cn2)c2ccccc2)cc1Cl (stereo not given),4,-33%,-2.3%,-4,x,x,-5%
Cn1c(Cc2cccs2)nnc1SCc1nc2ccccc2[nH]1,0,-6%,-2.1%,11,-7%,0.7,-8%
O=c1[nH][nH]c2cc(=O)n(-c3cccc(C(F)(F)F)c3)nc12,3,-1%,-1.2%,-3,-7%,-3.6,-56%[inhibitor]
Cc1ccc(N(C(=O)c2csnn2)C(C(=O)NC(C)(C)C)c2cccnc2)cc1 (stereo not given),3,0%,x,-7,19%,2.6,-3%
Cc1ccc(F)cc1NC(=O)COC(=O)COc1ccc(C#N)cc1,5,-3%,x,-19,x,x,-5%[15.4 µM]
c1ccc(CN2CCN(c3nc(-c4ccccc4)nc(-n4ccnc4)n3)CC2)cc1,3,-10%,0.2%,-33,32µM*,2.8,-3%
